Calb FLC: C. albicans growth modulation with fluconazole | C. albicans CaCi-2 (fluconazole-resistant clinical isolate) + fluconazole, Alamar Blue growth, 48 h | growth inhibition, % (no concentration beside the values) | 300,000 compounds, 0.57% hits;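 active = most replicates above 75%; inconclusive = exactly half above 75%; inactive = most below 75%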;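 note: all wells also contain fluconazole at 8 µg/ml as a sub-toxic cotreatment; 0% = median of DMSO wells and 100% = median of geldanamycin control wells; wells of about 8 µL received 7.5 nL stock; the first replicate is given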
Bfl-1 A1 inh: inhibitors of the anti-apoptotic protein A1, read as caspase activation | caspase activation, % (test concentration not listed) | MEF A1-2A-BIM cells, Caspase-Glo 3/7 luminescence, 3 h; percent of clofoctol response, vehicle zero | 330,000 compounds, 0.066% hits | AID 2462;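 active = over half of replicate activation scores above 10%, or exactly half above 10 with the replicate mean above 10; inconclusive = replicate mean below 10 yet half the replicates above 10; inactive = over half of replicates below 10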;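 note: wells of about 30 µL received 50 nL stock; many hits fall short of the cut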
ALR H2O2 inh: human ALR oxidase inhibition via reduced H2O2 | P55789 | purified ALR, DTT oxidation, H2O2 HRP-luminol luminescence | inhibition, % (no concentration beside the values) | 290,000 compounds, 3.8% hits | AID 485317;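 active = mean and each replicate at 75% or more; inconclusive = only one of the two met; inactive = neither met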;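 note: stock transfer was 7.5 nL into about 7.5 µL; 0% = neutral wells and 100% = wells with inactivated enzyme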
Target sequence (P55789 whole entry, looked up): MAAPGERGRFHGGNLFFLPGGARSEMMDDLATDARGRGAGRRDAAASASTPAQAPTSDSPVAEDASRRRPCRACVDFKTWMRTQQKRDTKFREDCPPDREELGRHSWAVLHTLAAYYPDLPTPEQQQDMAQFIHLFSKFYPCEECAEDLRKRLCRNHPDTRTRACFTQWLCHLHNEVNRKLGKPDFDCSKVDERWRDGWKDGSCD
LANA-H2A inh: blocks KSHV LANA binding to histone H2A/H2B. AID 2629. cell-free LANA-H2A/H2B peptide, fluorescence polarization. Q9QR71. 320,000 compounds, 0.6% hits. inhibition, % (test concentration not listed); in the data active = inhibition mostly above about 10%, no sharp cut-off; inactive = mostly below about 6.7%;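 note: stock transfer was 7.5 nL into about 10 µL; 0% = median of vehicle wells and 100% = median of positive control wells; one replicate is shown; the record names a cut of 25% in any replicate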
B2AR ag: agonists of human beta-2 adrenergic receptor inducing internalization | 340,000 compounds, 0.43% hits | AID 504454 | response, % (concentration not given with the values) | P07550 | Am2.2-beta2AR cells, FAP receptor internalization, flow cytometry; reference of the scale not given here;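 active = response above a set limit, near 3 SD of response in nonfluorescent compounds, cut at about 42% in these data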;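 note: stock transfer was 100 nL into about 11 µL; a reference agonist was the positive control; negative values mostly stem from fluorescent compounds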
Target sequence (P07550 whole entry, looked up): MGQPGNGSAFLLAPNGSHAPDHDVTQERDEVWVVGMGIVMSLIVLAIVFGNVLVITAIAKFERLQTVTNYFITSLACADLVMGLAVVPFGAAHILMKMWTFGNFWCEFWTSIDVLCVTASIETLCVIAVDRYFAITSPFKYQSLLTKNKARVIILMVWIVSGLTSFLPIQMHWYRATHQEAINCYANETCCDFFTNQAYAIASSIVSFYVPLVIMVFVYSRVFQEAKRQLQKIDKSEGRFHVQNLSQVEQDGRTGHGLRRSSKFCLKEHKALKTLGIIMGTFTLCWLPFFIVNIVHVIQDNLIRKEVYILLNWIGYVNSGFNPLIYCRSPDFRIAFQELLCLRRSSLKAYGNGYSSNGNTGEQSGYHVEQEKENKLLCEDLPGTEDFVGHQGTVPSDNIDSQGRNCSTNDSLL
Beta cell apopt: blocks beta cell apoptosis; protection from apoptosis, % (concentration not given with the values); 300,000 compounds, 0.8% hits; INS-1E cytokine-induced death, ATP luminescence, 48 h; percent of positive-control rescue, neutral wells zero;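 active = all replicates at 75% or more, or half of them and the mean; inconclusive = half reach 75% but not the mean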;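 note: 0% = cytokine-treated negative control wells and 100% = positive control rescue; higher means more ATP so stronger rescue from cytokine killing; wells of about 40 µL received 100 nL stock; the first replicate is given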
T cruzi inh: blocks replication of Trypanosoma cruzi; T. cruzi beta-gal in NIH3T3, luminescence, 90 h; inhibition, % (no concentration beside the values); 300,000 compounds, 1.4% hits;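 active = mean inhibition across valid replicates above about 55%, limit read from the data; inconclusive = mean below that limit but half or more replicates reach it; inactive = mean below it, under half of replicates reach it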;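 note: signal also drops with host cell toxicity which is not excluded here; 0% = plate median of DMSO wells and 100% = zero luminescence signal; higher percent means less beta-gal luminescence so fewer parasites; stock transfer was 50 nL into about 50 µL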
Ecoli rRNA inh: inhibits bacterial ribosomal RNA function over humanized ribosomes; E. coli WT GFP vs humanized-ribosome RFP mutants, fluorescence, 24 h; stronger effect = lower value; DMSO median 0, no signal -100; GFP signal change (wild-type ribosome), % (concentration not given with the values); 350,000 compounds, 1.6% hits; AID 720706;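 active = significant combined selectivity score with lowered wild-type GFP, culture density cut under 30%, mutant RFP and density less affected; inactive = any of these conditions unmet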; note: one replicate is shown; some compounds called inactive have numbers as strong as hits
Ecoli rRNA inh OD600: recorded beside Ecoli rRNA inh, whose call it bears; OD600 change, %; measured here: OD600 growth;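 optical density of the mix in the first replicate; 0 = DMSO median and -100 = no signal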
Ecoli rRNA inh RFP: second read-out of Ecoli rRNA inh, no call of its own (marks repeat the call); RFP signal change, %; measured here: RFP humanized mutant strains;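 first replicate; 0 = DMSO median and -100 = no signal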
* marks the source's active call; other numbers are inactive results.

Results for Cc1ncc(CO)c(/C=N/NC(=O)c2ccccc2Br)c1O ?
Calb FLC: 11; Bfl-1 A1 inh: -0.6; ALR H2O2 inh: -1; LANA-H2A inh: 3.7; B2AR ag: 6; Beta cell apopt: 5; T cruzi inh: 6; Ecoli rRNA inh: 9; Ecoli rRNA inh OD600: 6; Ecoli rRNA inh RFP: -0.9

Results for Cc1ccc(C(=O)Nc2ccc3c(c2)OCCO3)c(C)c1 ?
Calb FLC: 1; Bfl-1 A1 inh: 1.3; ALR H2O2 inh: -7; LANA-H2A inh: -4.0; B2AR ag: -6; Beta cell apopt: 2; T cruzi inh: -3; Ecoli rRNA inh: -4; Ecoli rRNA inh OD600: -20; Ecoli rRNA inh RFP: -6.5

What do the screens show for `Cc1ccc(O)c(C(=O)c2cc(C(=O)NCCc3ccccc3)c(=O)n(CCc3ccccc3)c2)c1`?
Calb FLC: -4; Bfl-1 A1 inh: 0.8; ALR H2O2 inh: -3; LANA-H2A inh: 5.6; B2AR ag: 6; Beta cell apopt: -3; T cruzi inh: 61*; Ecoli rRNA inh: 7; Ecoli rRNA inh OD600: -8; Ecoli rRNA inh RFP: -2.6

Results for CCn1nc(C)c(C2C(C#N)=C(N)OC3=C2C(=O)CC(C)(C)C3)c1C (configuration not stated) ?
Calb FLC: 0; Bfl-1 A1 inh: 1.4; ALR H2O2 inh: 10; LANA-H2A inh: -1.1; B2AR ag: 5; Beta cell apopt: -5; T cruzi inh: -6

How did Cc1ccc(OCC(=O)Nc2ccc(N3CCN(C(=O)c4ccc(C)cc4)CC3)cc2)cc1 do in these assays?
Calb FLC: -36; Bfl-1 A1 inh: 0.6; ALR H2O2 inh: 0; LANA-H2A inh: -1.4; B2AR ag: 1; T cruzi inh: 13; Ecoli rRNA inh: 10; Ecoli rRNA inh OD600: 9; Ecoli rRNA inh RFP: 0.7

Results for COc1ccc(OC)c(S(=O)(=O)N2CCCC(C(=O)NCCN3CCOCC3)C2)c1 (configuration not stated) ?
Calb FLC: 3; Bfl-1 A1 inh: 0.4; ALR H2O2 inh: 3; LANA-H2A inh: -8.9; B2AR ag: 5; Beta cell apopt: 1; T cruzi inh: 1; Ecoli rRNA inh: 6; Ecoli rRNA inh OD600: 2; Ecoli rRNA inh RFP: -1.8

How did Cc1cccc2cc(C#N)c(SCC#N)nc12 do in these assays?
Calb FLC: 7; Bfl-1 A1 inh: 0.7; ALR H2O2 inh: -4; LANA-H2A inh: 1.9; B2AR ag: 4; Beta cell apopt: 3; T cruzi inh: 1; Ecoli rRNA inh: -12; Ecoli rRNA inh OD600: -24; Ecoli rRNA inh RFP: -4.1

How did C/C(=N\NC(=O)c1ccc(N2CCCC2=O)cc1)c1ccc(O)cc1O do in these assays?
Calb FLC: -12; Bfl-1 A1 inh: 1.6; ALR H2O2 inh: 7; LANA-H2A inh: -3.2; B2AR ag: -14; Beta cell apopt: 10; T cruzi inh: -9; Ecoli rRNA inh: -20; Ecoli rRNA inh OD600: -21; Ecoli rRNA inh RFP: -4.2

How did O=C(c1ccc(Cl)cc1)N(Cc1ccccc1F)N1C(=O)CCCC1=O do in these assays?
Calb FLC: 5; Bfl-1 A1 inh: 0.2; ALR H2O2 inh: -1; LANA-H2A inh: 1.9; B2AR ag: -9; Beta cell apopt: -3; T cruzi inh: 7; Ecoli rRNA inh: 0; Ecoli rRNA inh OD600: 0; Ecoli rRNA inh RFP: 0.5

Results for CCNS(=O)(=O)c1ccc2c(c1)n(C)c(=O)n2C ?
Calb FLC: -21; Bfl-1 A1 inh: 0.9; ALR H2O2 inh: 2; LANA-H2A inh: -5.9; B2AR ag: 6; Beta cell apopt: -8; T cruzi inh: -15

Results for COc1ccc(-n2c(SCC(=O)O)nc3sc4c(c3c2=O)CCC4)cc1 ?
Calb FLC: 2; Bfl-1 A1 inh: 0.6; ALR H2O2 inh: -6; LANA-H2A inh: -7.9; B2AR ag: -7; Beta cell apopt: -7; T cruzi inh: -37; Ecoli rRNA inh: -22; Ecoli rRNA inh OD600: -22; Ecoli rRNA inh RFP: -4.0

Results for Cc1nn(Cc2cccc(F)c2)c(C)c1NC(=O)c1ccc(COc2ccccc2Cl)cc1 ?
Calb FLC: -5; Bfl-1 A1 inh: 0.1; ALR H2O2 inh: -7; LANA-H2A inh: -5.2; B2AR ag: 12; Beta cell apopt: 16; T cruzi inh: 57*

How did NNC(=O)Cn1nc2n(c1=O)-c1ccccc1SC2 do in these assays?
Calb FLC: -3; Bfl-1 A1 inh: 0.1; ALR H2O2 inh: 3; LANA-H2A inh: 1.8; B2AR ag: 2; T cruzi inh: -2; Ecoli rRNA inh: -1; Ecoli rRNA inh OD600: -15; Ecoli rRNA inh RFP: 2.5

Results for COc1ccc(CCNC(=O)c2c(O)c3c([nH]c2=O)CCCC3)cc1OC ?
Bfl-1 A1 inh: 0.1; ALR H2O2 inh: -2; LANA-H2A inh: -0.1; B2AR ag: -1; Beta cell apopt: -7

What do the screens show for `CC1CCN(CC(O)COc2ccc(OCC(O)CN3CCC(C)CC3)cc2)CC1` (configuration not stated)?
Calb FLC: 0; Bfl-1 A1 inh: -0.1; ALR H2O2 inh: 1; LANA-H2A inh: -1.9; B2AR ag: 1; Beta cell apopt: -2; T cruzi inh: 4; Ecoli rRNA inh: 4; Ecoli rRNA inh OD600: 13; Ecoli rRNA inh RFP: -1.2

What do the screens show for `Cc1nn(CC(=O)O)c(C)c1NC(=O)c1cccs1`?
Calb FLC: -2; ALR H2O2 inh: -13; B2AR ag: 3; T cruzi inh: -2; Ecoli rRNA inh: 3; Ecoli rRNA inh OD600: 5; Ecoli rRNA inh RFP: 5.3

How did Cc1cc(C(=O)Nc2ccc(Br)cc2)c2ccccc2n1 do in these assays?
Calb FLC: 11; Bfl-1 A1 inh: -0.2; ALR H2O2 inh: 0; LANA-H2A inh: 0.2; B2AR ag: -1; Beta cell apopt: -19; T cruzi inh: -1; Ecoli rRNA inh: 3; Ecoli rRNA inh OD600: 5; Ecoli rRNA inh RFP: 0.7

How did O=C(CSc1nccn(-c2ccc(Br)cc2)c1=O)NCc1ccccc1 do in these assays?
Calb FLC: 3; Bfl-1 A1 inh: 0.7; B2AR ag: -1; Beta cell apopt: -16; T cruzi inh: -4; Ecoli rRNA inh: 11; Ecoli rRNA inh OD600: 14; Ecoli rRNA inh RFP: -1.3

What do the screens show for `Cn1cccc1C(=O)NC(=O)COC(=O)c1ccc(S(C)(=O)=O)c([N+](=O)[O-])c1`?
Bfl-1 A1 inh: 2.1; ALR H2O2 inh: -25; LANA-H2A inh: -1.1; B2AR ag: 16; Beta cell apopt: -58

How did CCCC(=O)Nc1ccc(Cl)c(NC(=O)CC)c1 do in these assays?
Calb FLC: -2; Bfl-1 A1 inh: -0.9; ALR H2O2 inh: 5; LANA-H2A inh: -1.0; B2AR ag: 2; Beta cell apopt: -5; T cruzi inh: -3

What do the screens show for `CCOC(=O)C1CCN(C(=O)Cn2nc(C)n3c(cc4cc(F)ccc43)c2=O)CC1`?
Calb FLC: -5; Bfl-1 A1 inh: -0.2; ALR H2O2 inh: -32; LANA-H2A inh: -1.1; B2AR ag: -3; Beta cell apopt: 4; T cruzi inh: 1; Ecoli rRNA inh: 3; Ecoli rRNA inh OD600: 8; Ecoli rRNA inh RFP: 0.1

How did COc1ccc(-n2nc3c(c2NC(=O)COc2ccccc2)CS(=O)C3)cc1 (configuration not stated) do in these assays?
Calb FLC: -1; Bfl-1 A1 inh: -0.2; ALR H2O2 inh: -19; LANA-H2A inh: 2.1; B2AR ag: -2; Beta cell apopt: 3; T cruzi inh: 3; Ecoli rRNA inh: 0; Ecoli rRNA inh OD600: -16; Ecoli rRNA inh RFP: 1.4

Results for CC(=O)NC1CC2CCCC(C1)N2S(=O)(=O)c1cccc(F)c1 (configuration not stated) ?
Calb FLC: 0; Bfl-1 A1 inh: 0.0; ALR H2O2 inh: -9; LANA-H2A inh: -0.5; B2AR ag: 4; Beta cell apopt: 4; T cruzi inh: 10

What do the screens show for `CSc1ccc(Cl)c(C(=O)N(C)CC(=O)Nc2ccc(N3CCOCC3)cc2)c1`?
Calb FLC: 0; Bfl-1 A1 inh: 0.4; ALR H2O2 inh: 89*; LANA-H2A inh: -1.9; B2AR ag: 2; Beta cell apopt: 3; T cruzi inh: 4; Ecoli rRNA inh: 4; Ecoli rRNA inh OD600: -1; Ecoli rRNA inh RFP: -0.9

Results for Cc1cc(C)c2ccc(C(=O)O)nc2c1O ?
Calb FLC: 64; Bfl-1 A1 inh: 0.8; LANA-H2A inh: -4.6; B2AR ag: -3; Beta cell apopt: -2; T cruzi inh: -10

What do the screens show for `CNC(=S)N1N=C(c2ccccc2)CC1c1ccc(Br)cc1` (configuration not stated)?
Calb FLC: inconclusive; Bfl-1 A1 inh: 0.8; ALR H2O2 inh: -5; LANA-H2A inh: -0.4; B2AR ag: -3; Beta cell apopt: 11; T cruzi inh: 41

How did O=C(Nc1ccc(-c2cn3ccccc3n2)cc1)c1ccc(Cl)cc1 do in these assays?
Calb FLC: 22; Bfl-1 A1 inh: -0.3; ALR H2O2 inh: -7; LANA-H2A inh: -5.1; B2AR ag: -29; Beta cell apopt: 0; T cruzi inh: 16

Results for CC(=O)NC1C(O)OC(CO)C(O)C1O (configuration not stated) ?
Calb FLC: 0; Bfl-1 A1 inh: -0.2; ALR H2O2 inh: -28; LANA-H2A inh: -6.2; B2AR ag: 9; Beta cell apopt: -2; T cruzi inh: -10

Results for CCN(CC)C(C)C(=O)NCC1(c2ccccc2)CCOCC1 (configuration not stated) ?
Calb FLC: 5; Bfl-1 A1 inh: -0.3; ALR H2O2 inh: -7; LANA-H2A inh: 3.8; B2AR ag: 2; Beta cell apopt: -2; T cruzi inh: 1

What do the screens show for `NCCCC[C@@H](C(=O)N1CCNCC1)n1cc([C@@H](N)CC(N)=O)nn1`?
Bfl-1 A1 inh: 0.9; ALR H2O2 inh: -10; LANA-H2A inh: -1.1; B2AR ag: -2; Beta cell apopt: -5; Ecoli rRNA inh: 10; Ecoli rRNA inh OD600: 7; Ecoli rRNA inh RFP: -7.2

What do the screens show for `CN(Cc1ccccc1)C(=O)c1nc2ccccn2c1CNCCCOc1cccnc1`?
Calb FLC: -3; Bfl-1 A1 inh: 0.4; ALR H2O2 inh: -3; LANA-H2A inh: 0.6; B2AR ag: 11; Beta cell apopt: 2; T cruzi inh: 35; Ecoli rRNA inh: 3; Ecoli rRNA inh OD600: -1; Ecoli rRNA inh RFP: -4.7

The list is partial; count on the stated rates, not on these rows.
